S aureus helic: blocks Staphylococcus aureus DNA helicase; purified S. aureus helicase, fluorescence unwinding assay; about half of the hits fall short of the stated cut; inhibition, %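 (tested at about 80 µM)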; 120,000 compounds, 0.05% hits; AID 485395;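 active = both duplicates at 50% or more, or one of them with a favoured structure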;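 note: 0% = mean of negative control wells and 100% = mean of positive control wells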
MgrA DNA FP: S. aureus MgrA-DNA binding modulation. inhibition, %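 (about 10 µg/mL by stock and volumes)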. 84,000 compounds, 0.13% hits. fluorescence polarization;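 active = above 50% in either of two replicates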;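 note: 0% = protein plus DNA without compound and 100% = DNA alone without protein; higher means less MgrA bound to DNA so lower polarization; one replicate is shown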
Starred values were filed as active, the others as inactive; x = not tested or not shown. Not all compounds are listed; the hit share may differ from the screen's.

entry	SMILES	S aureus helic	MgrA DNA FP
1	CCOC(=O)CSc1nnc(CSc2nc3ccccc3c(=O)[nH]2)n1-c1ccccc1	-3.0	x
2	CCOC(=O)c1[nH]c(C)c(C(=O)NC2CCCCCC2)c1C	-13.0	x
3	COc1cc(NC(=O)CS)cc(OC)c1	9.0	-3.3
4	FC(F)(F)c1ccc2n[nH]nc2c1	x	-2.7
5	O=C1OC(c2ccccc2Cl)=N/C1=C/c1ccco1	3.0	4.2
6	CCc1cc(C(=O)N2CCOCC2)c(NC2=NS(=O)(=O)c3ccccc32)s1	6.0	0.3
7	NC(=O)COC(=O)C1CCCN(C2=NS(=O)(=O)c3ccccc32)C1 (stereo not given)	-3.0	x
8	O=C(COC(=O)Cc1c(Cl)cccc1Cl)NCC1CCCO1 (stereo not given)	12.0	-1.0
9	Cc1ccc(C2C(C#N)=C(N)OC3=C2C(=O)CC(C)(C)C3)s1 (stereo not given)	6.0	-0.5
10	CN(C)/C=N/c1nnc(Sc2ccc([N+](=O)[O-])cn2)s1	x	2.4
11	Cc1ccc(NC(=O)CN(C)C(=O)COc2cccc(-n3cnnn3)c2)cc1	22.0	x
12	N#C/C(=C\c1ccccc1Sc1ccc(Cl)cc1)S(=O)(=O)c1ccc(Cl)cc1	x	0.7
13	COc1ccc(-c2cn3c(n2)CCC3)cc1	-14.0	-2.2
14	Cc1cc(C(=O)OCC(=O)NC2CCCCC2C)c2ccccc2n1 (stereo not given)	-23.0	0.6
15	CC(=O)OC1COC(N2CCc3ccccc32)C(OC(C)=O)C1OC(C)=O (stereo not given)	3.0	0.4

entry	SMILES	S aureus helic	MgrA DNA FP
16	CC1(C)CC(=O)C(=Cc2cn(CCC#N)nc2-c2ccccc2)C(=O)C1	5.0	x
17	Nc1nc(-c2cc3c(cc2Br)OCCO3)cs1	4.0	0.8
18	O=C(CN(c1ccc2c(c1)OCCO2)S(=O)(=O)c1ccccc1)N1CCCCCC1	1.0	-1.7
19	CCNS(=O)(=O)c1ccc(-c2cc(C(=O)OCC)no2)s1	7.0	x
20	CC(C)(C)C(=O)NC1CCN(C(=O)NCc2ccccc2)CC1	12.0	0.7
21	O=C(NCC(c1cccs1)S(=O)(=O)c1ccc(Cl)cc1)C1CC1 (stereo not given)	15.0	x
22	CCCS(=O)(=O)c1ccc(C(=O)Nc2ccc(Cl)cc2)cn1	x	-0.6
23	O=C1/C(=C/N(C(=O)c2ccco2)c2ccc([N+](=O)[O-])cc2)Sc2ccccc21	x	0.5
24	Cc1cc(C(=O)COC(=O)C2Cc3ccccc3CN2S(C)(=O)=O)c(C)n1-c1nccs1 (stereo not given)	-14.0	x
25	CS(=O)(=O)Nc1ccc(-c2cn3ccccc3n2)cc1	3.0	-0.8
26	N/C(=N\OS(=O)(=O)c1ccc(Cl)cc1)c1ccc(C(F)(F)F)cc1	x	-1.3
27	O=C(Cn1cc(S(=O)(=O)CC(=O)N2CCc3ccccc32)c2ccccc21)N1CCCC1	4.0	x
28	COc1cccc(C(=O)Nc2ccc(Cc3ccc(NC(=O)c4cccc(OC)c4)cc3)cc2)c1	5.0	1.1
29	O=C(O)c1cc2cc(Cl)cc(Cl)c2oc1=O	x	1.1
30	Nc1nc(Cl)c(-c2ccccc2)c(Cl)n1	-13.0	-0.8

Record cards (already shown).
`CCNS(=O)(=O)c1ccc(-c2cc(C(=O)OCC)no2)s1` is listed with S aureus helic = 7.0; MgrA DNA FP = x
`O=C(CN(c1ccc2c(c1)OCCO2)S(=O)(=O)c1ccccc1)N1CCCCCC1` is listed with S aureus helic = 1.0; MgrA DNA FP = -1.7

(further entries)
entry	SMILES	S aureus helic	MgrA DNA FP
31	COC(=O)c1ccccc1NC(=O)c1oc2c(c1C)-c1[nH]ncc1CC2	24.0	x
32	CCn1c(SCc2cccc(C)c2)nnc1C(C)NC(=O)c1ccccc1 (stereo not given)	18.0	1.6
33	CN(C)c1ccc(C(c2cc3c(cc2O)OCO3)N2CCCCC2)cc1 (stereo not given)	6.0	2.1
34	Oc1cc2ccccc2cc1-c1nnc2n1-c1ccccc1SC2	17.0	x
35	CC1Cc2cc(S(=O)(=O)N3CCCC3)ccc2N1C(=O)C1CCC1 (stereo not given)	-26.0	x
36	CNC(=O)c1cc2c(n(-c3ccccc3)c1=O)CC(C)(C)CC2=O	15.0	-1.9
37	Cc1cc(NC(=O)COCc2cc(-c3ccc4c(c3)OCO4)on2)nn1Cc1ccc(Cl)cc1	13.0	x
38	CC(C)C12CN3CC(C(C)C)(CN(C1)C3(C)C)C2=O	3.0	3.0
39	CCCSc1ncccc1C(=O)Nc1ccc(OC(F)(F)F)cc1	x	-2.2
40	COc1ccccc1N1CCN(CC(=O)n2c3ccccc3c3ccccc32)CC1	-25.0	x
41	CCN(CC)S(=O)(=O)c1ccc2c(c1)nc(CCC(=O)OCN1C(=O)c3ccccc3C1=O)n2C	-13.0	x
42	O=C(Cn1cc(S(=O)(=O)N2CCCC2)ccc1=O)c1c[nH]c2ccccc12	-1.0	x
43	COc1ccc(/C=C/C(=O)OCC(=O)Nc2cccc(Cl)c2)cc1	-8.0	0.0
44	CC(C)NC(=O)c1cc2c(ccc3ccccc32)o1	4.0	-2.2
45	CCn1c(CNC(=O)Cc2c(F)cccc2Cl)nnc1SC	5.0	-3.2

Of the compounds above, these have a cyano group:
entry	SMILES	S aureus helic	MgrA DNA FP
9	Cc1ccc(C2C(C#N)=C(N)OC3=C2C(=O)CC(C)(C)C3)s1 (stereo not given)	6.0	-0.5
12	N#C/C(=C\c1ccccc1Sc1ccc(Cl)cc1)S(=O)(=O)c1ccc(Cl)cc1	x	0.7
16	CC1(C)CC(=O)C(=Cc2cn(CCC#N)nc2-c2ccccc2)C(=O)C1	5.0	x

New compounds follow
entry	SMILES	S aureus helic	MgrA DNA FP
46	CCOC(=O)c1cnc2cc(C(F)(F)F)ccc2c1N1CCCCCC1	10.0	0.2
47	CC(C#N)OC(=O)c1ccc(S(=O)(=O)N(C)C)cc1 (stereo not given)	-6.0	x
48	CCc1ccc(NC(=O)c2ccccc2C(=O)O)cc1	-22.0	x
49	O=C(CCCOc1ccccc1)N1CCN(Cc2ccc3c(c2)OCO3)CC1	-10.0	x
50	COc1cc(/C=c2\sc3nc4cc(C)c(C)cc4n3c2=O)c(Br)cc1OCC(=O)O	12.0	1.0
51	CCN(C(=O)c1cc2c(=O)n3ccccc3nc2n1C)C1CCCCC1	-13.0	x
52	Cc1cc(N)n(-c2ccccc2)n1	x	0.4
53	CN(C)C(=O)Sc1nnc(C2CC2)n1-c1ccc(Cl)cc1	x	-2.8
54	COC(CNC(=O)C1CCCN1C(=O)OCc1ccccc1)OC (stereo not given)	22.0	x
55	COc1ccc(S(=O)(=O)N2CCN(C(c3ccc(OC)c(OC)c3)c3nnnn3C3CCCCC3)CC2)cc1 (stereo not given)	0.0	-1.2
56	OCCSc1sc(=S)sc1SCCO	4.0	x
57	CCOc1cc(C2C(C(=O)OCCSCC)=C(C)NC3=C2C(=O)CCC3)cc(Br)c1O (stereo not given)	x	1.6
58	O=C(Nc1ccc(I)cc1)c1ccc(COc2ccccc2Br)o1	0.0	2.2
59	CC1(C)CC(NCC(O)COCc2ccco2)CC(C)(C)N1 (stereo not given)	-3.0	x
60	O=C(COC(=O)c1ccccc1NC(=O)c1ccco1)c1ccccc1	24.0	x

entry	SMILES	S aureus helic	MgrA DNA FP
61	Cn1nc(-c2ccc(F)cc2)nc2c(=O)n(C)c(=O)nc1-2	-132.0	x
62	CCCc1nc2ccccc2c(C(=O)OCC#N)c1CC	9.0	x
63	C=CCN(CC=C)S(=O)(=O)c1nc2nc(C)c(C)c(C)n2n1	-3.0	x
64	Cc1cc(C)c(C)c(C(=O)COC(=O)c2cc(=O)[nH]c3ccccc23)c1C	1.0	3.2
65	COc1cccc(CNC(=O)CCn2nc(-c3ccccc3)ccc2=O)c1	6.0	-1.6
66	CCCN(CCC)S(=O)(=O)c1ccc(C(=O)ON=C2CCCCC2)cc1	x	-1.0
67	CCC(C)N1CC(C(=O)O)CC1=O (stereo not given)	10.0	x
68	O=C(NC1CCCCCC1)C1Cc2cc(Cl)ccc2O1 (stereo not given)	-5.0	x
69	Cn1nc(C(=O)N2CCCC2)c2c1-c1ccccc1SC2	2.0	3.5
70	CC(C)(CNS(=O)(=O)c1ccccc1Br)N1CCOCC1	11.0	x
71	CC(C)CCNC(=O)c1cc2c(=O)n3ccccc3nc2s1	17.0	-1.0
72	CC1CCN(CCC(=O)Nc2ccc(Br)cc2)CC1	2.0	1.4
73	Oc1ccccc1-c1cc(-c2ccc(Cl)cc2)n[nH]1	x	-1.6
74	O=C(CSc1nnc2sc3ccccc3n12)c1cccs1	-17.0	x
75	CC(CC(=O)Oc1ccc(C(F)(F)F)cc1)S(=O)(=O)c1ccc(Cl)cc1 (stereo not given)	x	-1.4

entry	SMILES	S aureus helic	MgrA DNA FP
76	O=C(c1cccs1)N(Cc1ccccc1)Cc1ccccc1	13.0	x
77	CC1CC(=O)Nc2ccccc2N1C(=O)c1ccccc1 (stereo not given)	x	-0.2
78	O=C(CCCn1nc(-c2ccccc2)c2ccccc21)N1CCN(c2ccc(F)cc2)CC1	1.0	8.3
79	COc1cc(C2C3=C(CC(C)(C)CC3=O)OC3=C2C(=O)CC(C)(C)C3)cc(OC)c1O	x	2.7
80	CC(C)(C)OC(=O)N1CSCC1C(=O)O (stereo not given)	x	-4.9
81	CC(C)c1ccc(NC(=O)C(c2ccccc2)N2CCN(C=O)CC2)cc1 (stereo not given)	-32.0	x
82	Cc1ncsc1CCSc1nc2ccccc2c(=O)n1C	0.0	x
83	CCOC(=O)c1c(C)nn(-c2cccc(C)c2C)c1C	x	2.9
84	COC(=O)c1c(NC(=O)CCNCc2ccco2)sc2c1CCC2	20.0	x
85	O=c1[nH]c(-c2ccccc2O)nc2ccccc12	x	2.9
86	C/C(N)=C(/C#N)C(=O)CSc1ncnc2scc(-c3ccccc3)c12	-21.0	x
87	O=C(Cn1nc(-c2ccc3c(c2)OCCO3)ccc1=O)Nc1ccc(N2CCOCC2)cc1	-8.0	4.3
88	O=C(NCCc1ccccc1)Nc1ccc2c(c1)N(Cc1ccccc1)C(=O)c1ccccc1S2	11.0	-0.3
89	CN(C1CCCCC1)S(=O)(=O)c1ccc(-c2cc(C(F)(F)F)no2)s1	2.0	x
90	CCc1ccc(N2CC(c3nc4ccccc4[nH]3)CC2=O)cc1 (stereo not given)	11.0	x

entry	SMILES	S aureus helic	MgrA DNA FP
91	CC(C)Nc1ncnc2ccsc12	x	-0.3
92	COc1ccc2c(c1)c1c(n2C(C)=O)C(OC(C)=O)=NCC1	-7.0	x
93	OCCn1ncc2c(SC3CCCCC3)ncnc21	-18.0	1.9
94	COc1ccccc1NC(=O)C1CC1(c1ccc(C)cc1)c1ccc(C)cc1 (stereo not given)	-6.0	-2.2
95	CCCNC(=O)c1ccc(N2CC3CC(C2)c2cccc(=O)n2C3)c(NC(=O)Nc2ccc(Cl)cc2)c1 (stereo not given)	3.0	x
96	Cc1ccccc1OCCn1c(C2CCCO2)nc2ccccc21 (stereo not given)	8.0	x
97	NCC1CCCN(Cc2ccccc2)C1 (stereo not given)	7.0	-3.4
98	O=C(O)c1cc(N=Cc2ccccc2O)ccc1O	-11.0	0.6
99	Cc1cc(C)n2nc(C(=O)O)nc2n1	-18.0	-1.4
100	O=C(OCc1cn2ccccc2n1)c1ccc2c(c1)C(=O)N(Cc1ccco1)C2=O	14.0	x
101	NCc1oc(-c2ccccc2)cc1C(=O)O	10.0	8.2
102	Cc1nn(-c2ccccc2)c2sc(C(=O)N=Nc3c(O)[nH]c4ccccc34)cc12	-12.0	x
103	NS(=O)(=O)c1ccc(CCNC2=CC(=O)OC23CCCCC3)cc1	6.0	-0.2
104	CSc1nn(-c2ccccc2)cc1-c1noc(-c2ccc(C(F)(F)F)cc2)n1	-18.0	x
105	CCOC(=O)N1CCN=C1SCc1cc(C)ccc1C	8.0	x

entry	SMILES	S aureus helic	MgrA DNA FP
106	Cn1nc(-c2ccc(Cl)cc2)cc1N	x	0.1
107	CCOc1cc(/C=C2/SC(=Nc3ccccc3)NC2=O)ccc1OCC(=O)O	x	1.2
108	C[C@H](NC(N)=O)C(=O)NC1CCCc2ccccc21 (stereo not given in full)	-11.0	x
109	O=C(O)c1c[nH]ccc1=O	5.0	x
110	CC(C)(C)C(=O)Nc1ccccc1C(=O)N1CCN(Cc2ccccc2)CC1	1.0	-1.6
111	Cc1cc(-c2ccccc2)nc2cc(C(=O)N3CCCCCC3)nn12	-5.0	-0.3
112	Cc1cc(-c2nc(COc3ccc(Cl)cc3Cl)no2)no1	x	2.2
113	CC(C)c1ccc(OC(=O)CN2C(=O)c3ccccc3C2=O)cc1	8.0	x
114	COc1ccc(C(CN=Cc2c(O)[nH]c(=S)[nH]c2=O)N(C)C)cc1 (stereo not given)	5.0	x
115	Cc1cc(NC(C)C)n2nc(-c3ccccc3)nc2n1	0.0	x
116	O=C(c1ccc2c(c1)N(Cc1ccccc1)CCS2)N1CCOCC1	6.0	8.8
117	C/C(=N\NC(=S)Nc1cccc(C(F)(F)F)c1)c1cc(Cl)cc(Cl)c1O	x	-0.2
118	N#CC1=C(SCC(N)=O)NC(O)(C(F)(F)F)C(C(=O)c2cccs2)C1c1ccc(F)cc1 (stereo not given)	-9.0	x
119	O=C(/C=N/O)Nc1cc(Cl)ccc1Cl	x	-2.0
120	CCOC(=O)c1c(C)[nH]c(C)c1C(=O)CC#N	-8.0	-1.1

entry	SMILES	S aureus helic	MgrA DNA FP
121	CN(C)/C=C/C(=O)c1sc(SCc2ccc(Cl)cc2)c2c1CC(C)(C)CC2=O	x	-0.1
122	CC(=O)Nc1ccc2c(c1)COCO2	x	-2.6
123	Brc1ccc2nc(SCc3nc4ccccc4[nH]3)[nH]c2c1	x	-1.2
124	CC(C)N(C(=O)CN1CCN(Cc2ccccc2)CC1)C(C)C	17.0	-2.5
125	O=C(Nc1ccc2[nH]c(=O)[nH]c2c1)c1ccccc1Br	-17.0	2.0
126	CSc1nc(-c2ccccc2)cc(-c2cccs2)c1C#N	4.0	3.9
127	COc1cccc(-c2nc3ccccc3c(=O)n2NC(=O)c2cc(-c3ccncc3)nc3ccccc23)c1	x	-2.7

High-throughput results from PubChem.
